StopGo reporter: lowers the luciferase signal of an FMDV 2A StopGo reporter | human cells with a luciferase reporter of 2A StopGo recoding; control for the full effect not named in the record | Potency, µM (highest dose often 57.9 µM), for inactives: at the highest dose signal change, negative = less light | 410,000 tested, 1.2% active; active = well fitted falling curve with a large enough effect; inconclusive = small, poorly fitted or top-dose-only effect; inactive = no such curve, though single readings can be large or run the other way; tested in HEK293T cells; also: % is scaled to controls: 0 for no effect and ±100 for the full control effect; nearly all actives have a fitted effect of over 45% in size; luciferase light after 4 h
RE007 growth inh: less growth of the S. pombe RE007 Vpr strain. AID 651644. S. pombe RE007 Vpr strain, BacTiter-Glo ATP luminescence, 24 h; control for the full effect not named in the record. Potency, µM (titrated, usually from 92.2 µM), inactives show at the highest dose activity change, negative = less growth. 360,000 tested, 0.21% active; active = well fitted falling curve with a large enough effect; inconclusive = small, poorly fitted or top-dose-only effect; inactive = no such curve, though single readings can be large or run the other way;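 also: % is scaled to controls: 0 for no effect and ±100 for the full control effect; nearly all actives have a fitted effect of over 50% in size; the assay follows cell death caused by Vpr and the record does not say whether a fall means rescue or toxicity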
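Fission yeast RE007 carrying one integrated HIV-1 vpr copy, seeded at OD 0.01 in PMG+AL medium with 23 nL pinned compound. Grown 24 h at 30 degrees; viability read by BacTiter-Glo luminescence after 5 min.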
Cruzain noTriton: blocks cruzain activity in detergent-free assay; purified cruzain, Z-FR-AMC fluorescence, no detergent; Potency, µM, inactives show max response, negative = inhibition, hits mostly inhibitors; P25779; AID 1476; 200,000 tested, 2.3% active; active = well fitted curve in the direction sought with a large enough effect; inconclusive = small, poorly fitted or top-dose-only effect, or another doubt; inactive = no such curve, though single readings can be large; an effect the other way counts as inactive or inconclusive;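 also: plate controls were enzyme without inhibitor for no effect and buffer without enzyme for full effect; nearly all actives have a fitted effect of over 40% in size; top concentration of the series not given in the record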
Target sequence (P25779 123-467 limits assumed): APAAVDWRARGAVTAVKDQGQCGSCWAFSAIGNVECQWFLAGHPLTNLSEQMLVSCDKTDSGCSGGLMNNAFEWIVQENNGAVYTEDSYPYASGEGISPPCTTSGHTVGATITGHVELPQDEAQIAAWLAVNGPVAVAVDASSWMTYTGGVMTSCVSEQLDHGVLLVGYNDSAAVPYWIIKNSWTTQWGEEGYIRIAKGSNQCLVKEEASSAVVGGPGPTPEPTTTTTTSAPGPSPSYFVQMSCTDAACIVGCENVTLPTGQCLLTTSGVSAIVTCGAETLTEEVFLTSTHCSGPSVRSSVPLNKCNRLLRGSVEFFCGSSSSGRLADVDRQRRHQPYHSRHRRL
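Purified cruzain at 1.5 nM, pre-incubated 15 min with compound at room temperature in 100 mM sodium acetate pH 5.5, 5 mM DTT, 0.00005% Triton X-100. Reaction started with 2 uM Z-FR-AMC; AMC fluorescence increase over 60 s gives rate.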
Lassa entry inh: Lassa virus entry inhibition | 300,000 tested, 1.2% active | AID 540256 | Potency, µM (highest dose often 37.9 µM), inactives show at the top dose activity change, negative = inhibition, most hits filed as inhibitors | Lassa virus pseudotype entry inhibition, cell reporter; control for the full effect not named in the record; active means well fitted inhibition curve with a large enough effect; inconclusive means small, poorly fitted or top-dose-only effect, or effect the other way; inactive means flat fitted curve, though single readings scatter; tested in HEK293 cells; also: % is scaled to controls: 0 for no effect and ±100 for the full control effect; nearly all actives have a fitted effect of over 50% in size; luciferase read-out
SARS PLP yeast: blocks SARS-CoV papain-like protease in a yeast assay | S. cerevisiae expressing SARS-CoV PLpro, growth rescue; control for the full effect not named in the record | Potency, µM (highest dose often 32.9 µM), for inactives: at the top dose activity, positive = growth rescue | 330,000 tested, 0.19% active | AID 485353; also: 0% is about no effect; nearly all actives have a fitted effect of over 55% in size; growth read by luminescence after 48 h
NS1 function inh: blocks influenza NS1 protein function. S. cerevisiae slowed by influenza A NS1, growth recovery by OD600. Potency, µM (doses to about 46.1 µM), without a hit: at the top dose activity, positive = more growth. 270,000 tested, 0.4% active. AID 2326; also: actives are rising curves; nearly all actives have a fitted effect of over 50% in size
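Read-out: OD600 growth recovery of NS1-expressing budding yeast. Cells grown overnight at 30C in -URA glucose medium, washed, resuspended and diluted 1:100 in 2% galactose assay medium, pH 6.0. Same strain lacking NS1 served as positive control.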
Cruzain inh Det: blocks cruzain activity in presence of Triton detergent; AID 1478; 200,000 tested, 0.43% active; Potency, µM, for inactives: max response, negative = inhibition, most hits filed as inhibitors; P25779; purified cruzain, Z-FR-AMC fluorescence, 0.01% Triton; active = well fitted curve in the direction sought with a large enough effect; inconclusive = small, poorly fitted or top-dose-only effect, or another doubt; inactive = no such curve, though single readings can be large; an effect the other way counts as inactive or inconclusive;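 also: plate controls were neutral wells for no effect and buffer without enzyme for full effect; nearly all actives have a fitted effect of over 40% in size; top concentration of the series not given in the record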
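Enzyme 1.5 nM, Z-FR-AMC 2 uM, NaOAc 100 mM pH 5.5, DTT 5 mM, Triton X-100 0.01%; 15 min RT compound preincubation; kinetic ex360/em450, 60 s delta.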
MARV entry inh: inhibitors of Marburg virus binding or cell entry; Marburg virus pseudotyped entry inhibition, cell reporter; control for the full effect not named in the record; about a third of the inactives were read at about 46 µM; 300,000 tested, 1.8% active; Potency, µM (series often up to 37.8 µM), without a hit: at the top dose activity change, negative = inhibition, hits mostly inhibitors; active = well fitted inhibition curve with a large enough effect; inconclusive = small, poorly fitted or top-dose-only effect, or effect the other way; inactive = flat fitted curve, though single readings scatter; tested in HEK293 cells; about a fifth of its hits are not listed in these tables; also: % is scaled to controls: 0 for no effect and ±100 for the full control effect; luciferase read-out
* hit, by the source's call; u = inconclusive; x = not tested or not shown; & = joins results of further samples; [ ] = another dose, or the depositor's remark. Unless noted, calls follow the shape of the dose curve; as a rule, active means well fitted rising curve with a large enough effect; inconclusive means small, poorly fitted or top-dose-only effect; inactive means no such curve, though single readings can be large or run the other way. Potency is read from the fitted curve at half-maximal effect.

SMILES	StopGo reporter	RE007 growth inh	Cruzain noTriton	Lassa entry inh	SARS PLP yeast	NS1 function inh	Cruzain inh Det	MARV entry inh
COc1ccc(N(CC(=O)Nc2ccccc2C(N)=O)S(=O)(=O)c2ccc(C)c([N+](=O)[O-])c2)cc1	36%[activator]	0%	x	-35%	0%	2%	x	u
CCNc1cc(N2CCOCC2)nc(SC)n1	5%	-4%	x	17%[46.1 µM]	1%	6%	x	-14%[46.1 µM]
CC1=C(C(=O)N2CCN(c3cc(C)ccc3C)CC2)C2(CCCCC2)OC1=O	-10%	14%	8%	-23%	-17%	7%	-0.2%	33%
CCn1cc(/C=C(\NC(=O)c2ccc(OC)cc2)C(=O)N2CCOCC2)c2ccccc21	13%	8%	x	x	-4%	-13%	x	x
CN1CCN(C(=O)c2ccc3ccccc3c2)CC1	53%[activator]	18%	4%	-1%	0%	u	-4.4%	u
O=C(O)CCc1nn2cc(-c3ccccc3)nc2[nH]c1=O	-8%	11%	0%	-9%	0%	7%	-6.5%	-8%
CCOc1cc(Cl)c(S(=O)(=O)NCc2ccccn2)cc1Cl	x	-1%	5%	-5%	0%	-10%	2.6%	1%
CCCN1C(=O)/C(=C/c2cc(C)n(C)c2C)SC1=Nc1ccc(OC)cc1	-22%	-14%	10%	u	-5%	18%	0.6%	u
CCOC(=O)N1N=C(c2ccccc2)CC1(O)C(F)(F)F (stereo not given)	34%[activator]	4%	2%	11%	1%	-8%	9.6%	u
CC(C)C(=NO)c1ccccc1	-11%	-9%	x	-3%	x	x	x	9%
CCOC(=O)CSc1nnc(COc2cccc(C)c2)o1	-6%	-11%	x	18%[46.1 µM]	1%	-3%	x	2%[46.1 µM]
O=C(COc1ccccc1)Nc1ccccc1OCc1cc(=O)n2ccccc2n1	-1%	x	-9%	7%[46.1 µM]	x	x	4.3%	x
Cc1cccc(CCNC(=O)COc2cc(=O)n(C)c3ccccc23)c1	-3%	3%	x	-6%	-1%	x	x	-2%[46.1 µM]
CCN(C(=O)COC(=O)c1cc([N+](=O)[O-])ccc1N1CCOCC1)C1CCCCC1	-24%	2%	x	12%	-4%	x	x	0%
COc1ccc(Cl)cc1-n1c(=S)sc2c(=O)[nH]c(SCC(=O)C(C)(C)C)nc21	-24%	1%	x	x	0%	u	x	x
CCOC(=O)CC1C(=O)NC2CCCCC2N1C(=O)Nc1ccc(Cl)cc1 (stereo not given)	-2%	-7%	6%	3%	0%	-39%	-0.2%	13%
CC(C)CNC(=O)CSc1nnc(-c2cccc(S(=O)(=O)N3CCCCC3)c2)o1	8%	16%	-3%	-7%	17%	0%	4.5%	-5%[46.1 µM]
CCOC(=O)N1CCC(N(CCN(C)C)C(=S)Nc2ccc(Oc3ccccc3)cc2)CC1	-18%	-3%	x	u	0%	x	x	u
COc1ccc(C(C(=O)NC2CCCC2)N(Cc2ccccc2)C(=O)c2snc(C(N)=O)c2N)cc1OC (stereo not given)	-4%	9%	x	5%[46.1 µM]	3%	12%	x	u
Cc1ccc(C(=O)N/N=C\c2ccc(OC(=O)c3cccc(F)c3)cc2)cn1	-5%	1%	x	3%[46.1 µM]	-1%	1%	x	14%[46.1 µM]
COC(=O)c1ccc(NC(=O)CCc2nnc3ccc(N4CCC5(CC4)OCCO5)nn23)cc1	28µM*	11%	x	-17%[46.1 µM]	1%	-6%	x	8%[46.1 µM]
CCN(c1nc(C)cc(OC)n1)S(=O)(=O)c1ccccc1	-11%	3%	0%	5%	1%	-1%	2.4%	4%
O=C(CC1C(=O)N(c2ccccc2)C(=O)N1CCC1=CCCCC1)Nc1ccc(F)cc1 (stereo not given)	5%	x	-6%	-6%[46.1 µM]	x	x	-5.8%	u
CN(C)c1ccc(C=C2SC(=S)NC2=O)cc1	27%	-10%	x	-21%[46.1 µM]	x	x	x	u
CCc1nnc(NC(=O)CSc2nnc(Cc3ccccc3)n2-c2ccccc2)s1	7%	0%	-2%	-9%	1%	-10%	1.9%	-6%&-6%
Cc1ccccc1CC(=O)NCCN1CCOCC1	-21%	7%	x	x	4%	14%	x	x
CCOc1cc(C2C(C(=O)OC)=C(C)NC3=C2C(=O)c2ccccc23)ccc1OC (stereo not given)	-14%	x	u	-6%[46.1 µM]	x	x	-8.5%	x
O=C(O)c1cnc(-c2ccccc2)nc1Sc1ccccc1	-10%	-14%	-5%	3%	-7%	-3%	-10%	-12%
CN(C)CCC1Sc2ccccc2Oc2ccccc21 (stereo not given)	-8%	-13%	3%	-52%	u	15%	1.1%	u
Cc1cccc(CCNC(=O)C2CCN(S(=O)(=O)c3c(C)nn(C)c3C)CC2)c1	-10%	0%	6%	-25%	3%	-10%	-2.9%	-12%
Cc1cccc(CN2CCCC(C(=O)c3ccc(C(F)(F)F)cc3)C2)n1 (stereo not given)	-8%	-20%	x	7%[46.1 µM]	-1%	-8%	x	u
CC(=O)Nc1ccc(Nc2ncnc(N)c2[N+](=O)[O-])cc1	10%	-10%	x	u	1%	-4%	x	4%
COC(=O)c1cn(C(=O)c2cc(OC)cc(OC)c2)c2ccccc12	-21%	-11%	x	12%	-2%	-13%	x	11%
O=C(N/N=C\c1cccnc1)c1ccc(Cl)cc1Cl	29%	7%	x	x	0%	0%	x	x
CC(Sc1ccccc1)C(=O)N1CCN(S(=O)(=O)c2ccccc2C(F)(F)F)CC1 (stereo not given)	u	2%	x	-6%	-2%	4%	x	2%
COc1ccc(CNC(=O)CCS(=O)(=O)c2cc(Br)cc3c2N(C(C)=O)C(C)C3)cc1 (stereo not given)	-1%	x	-13%	-6%[46.1 µM]	x	x	0.2%	u
CCOc1cc(C(=O)NCC(C)CN(C)C)cc(OCC)c1OCC (stereo not given)	17%	2%	-2%	-12%	x	-8%	6.9%	-7%
CCOC(=O)c1nn(-c2ccc3ccccc3c2)cc1O	14%	-25%	x	-15%[46.1 µM]	-3%	x	x	u
CCOc1ccc(NC(=O)CN2C(=O)COc3ccc(S(=O)(=O)Nc4ccccc4)cc32)cc1	17%	x	-25%	8%[46.1 µM]	x	x	-7.6%	x
Cn1cc(CNC(=O)C2CCCCC2)cn1	-22%	-4%	-16%	9%	-4%	3%	2.3%	27%
O=C(Nc1cc2c(=O)n(-c3ccc(Oc4ccccc4)cc3)ccc2oc1=O)c1ccccc1	-18%	-2%	x	-24%	0%	x	x	-7%[46.1 µM]
CC(C)(C)NC(=O)CON=C1c2ccccc2-c2ccccc21	-19%	4%	-14%	-24%	-17%	-41%	-5.5%	u
Cc1cccc(CN2CCC(C(=O)Nc3cccc(-c4cscn4)c3)CC2)n1	u	-20%	x	x	-3%	3%	x	x
Cc1cc(NC(=O)c2ccc(N3C(=O)C4C5C=CC(C5)C4C3=O)cc2)no1 (stereo not given)	2%	-13%	x	10%[46.1 µM]	1%	-2%	x	u
COc1ccccc1N1CCN(C(=O)C(C)N(c2ccc(C)c(C)c2)S(C)(=O)=O)CC1 (stereo not given)	35µM*	-2%	u	-18%	0%	-13%	-4.4%	-28%
COc1ccc(-c2nnc(SCC(=O)NNC(=O)c3ccc(C)cc3)o2)cc1	-24%	-6%	-10%	0%	-11%	-1%	-2.1%	-1%
O=C(Nc1cccc(S(=O)(=O)NC2=NCCCCC2)c1)c1cc(-c2ccccc2)nc2ccccc12	-5%	-12%	u	u	-6%	15%	-6.6%	u
O=C(Nc1ccc(OCc2cc(=O)n3c4c(sc3n2)CCCC4)cc1)c1ccccc1	-4%	x	7%	1%[46.1 µM]	x	x	0.4%	3%[46.1 µM]
CCc1ccc(NC(=S)N(CCCN2CCN(C)CC2)Cc2cccs2)cc1	7%	-17%	6%	-26%	14%	-15%	2.0%	u
CCOC(=O)c1ccc2[nH]c3c(c2c1)CN(C)CC3	-12%	-6%	-4%	x	-1%	-6%	-4.2%	x
Next part:
SMILES	StopGo reporter	RE007 growth inh	Cruzain noTriton	Lassa entry inh	SARS PLP yeast	NS1 function inh	Cruzain inh Det	MARV entry inh
COc1ccc(-c2noc(-c3ccc(NCC4CCCO4)c([N+](=O)[O-])c3)n2)cc1OC (stereo not given)	-14%	x	23%	5%[46.1 µM]	x	x	-4.2%	-22%[46.1 µM]
CCOCCOc1cccc(C(=O)NC(c2ccccc2)c2ccccc2)c1	-7%	0%	x	x	-4%	7%	x	x
NC(=O)NC(Cc1ccccc1)C(=O)NNC(=O)COc1ccccc1Cl (stereo not given)	-6%	-2%	x	17%[46.1 µM]	0%	x	x	13%[46.1 µM]
O=C(CN1CCCC1)Nc1c2c(nc3ccccc13)N(Cc1ccccc1)CC2	-2%	-12%	2%	-13%	1%	-3%	-11%	u
Nc1cc(Cl)nc(N/N=C/c2ccc([N+](=O)[O-])cc2)n1	0%	-11%	0%	18%	15%	-3%	-4.0%	u
CCCc1ccc2oc(C(=O)N(C)Cc3ccn[nH]3)c(C)c2c1	15%	5%	x	u	-6%	-6%	x	-8%[46.1 µM]
COc1ccccc1C(CNC(=O)c1cccc(S(=O)(=O)NCc2ccccc2)c1)N(C)C (stereo not given)	-5%	-9%	x	6%	0%	x	x	-11%
CC1CCc2nn(CC(=O)NCCCN3CCOCC3)cc2C1 (stereo not given)	1%	-1%	6%	x	0%	2%	2.1%	x
CCCCCCOc1ccc(N2C(=O)CC(N(CCc3ccc(S(N)(=O)=O)cc3)C(C)=O)C2=O)cc1 (stereo not given)	-13%	5%	x	-2%	0%	1%	x	1%[46.1 µM]
COc1cc2c(cc1OC)CN(C(=O)c1oc3ccccc3c1C)CC2	-29%	9%	x	u	-1%	-12%	x	u
Cc1ccc(S(=O)(=O)NNC(=O)c2ccc(NC(=O)C3CC3)cc2)cc1	2%	16%	x	x	-5%	-1%	x	x
COc1ccc(CCNc2ccc(N3C(=O)CC(C)C3=O)cc2[N+](=O)[O-])cc1 (stereo not given)	-10%	4%	x	-22%[46.1 µM]	4%	x	x	0%[46.1 µM]

Screening data deposited in PubChem by National Center for Advancing Translational Sciences (NCATS).
